ClpP mod: qHTS Assay for Activators of ClpP. ATP-dependent Clp protease proteolytic subunit (Bacillus subtilis (strain 168)), P80244. Potency, µM (doses to about 57.5 µM), for the others: at the highest dose activity change, negative = active. 340,000 compounds, 1.9% hits. AID 651965, 2013. purified B. subtilis ClpP, FRET peptide cleavage, 20 min; active = well fitted falling curve with a large enough effect; inconclusive = small, poorly fitted or top-dose-only effect; inactive = no such curve, though single readings can be large or run the other way; also: potency is read from the fitted curve at half-maximal effect; the source files actives as falling curves though it sought activators and does not explain the sign; nearly all actives have a fitted effect of over 65% in size; many hits overshoot -100%
Target sequence (P80244 whole entry, looked up): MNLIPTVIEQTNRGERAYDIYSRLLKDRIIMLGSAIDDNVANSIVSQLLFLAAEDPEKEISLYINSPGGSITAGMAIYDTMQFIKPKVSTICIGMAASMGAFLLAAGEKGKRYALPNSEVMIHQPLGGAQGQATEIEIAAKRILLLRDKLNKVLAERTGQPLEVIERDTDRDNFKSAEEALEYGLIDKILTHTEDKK
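Buffer: 100 mM Tris/HCl pH8, 100 mM KCl, 0.05% low protease BSA, 2.5% glycerol, 0.01% Tween-20. ClpP 10 microg/mL final; 20 min RT; delta FRET normalized to ADEP and DMSO controls.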
Sfp inh: qHTS Assay for Inhibitors of Bacillus subtilis Sfp phosphopantetheinyl transferase (PPTase); 4'-phosphopantetheinyl transferase ffp (Bacillus subtilis), Q9F4F7; Biochemical Sfp PPTase activity, qHTS; Potency, µM, without a hit: max response, negative = inhibition, actives largely listed as inhibitors; 310,000 compounds, 3.5% hits; AID 1490, 2009; active = well fitted inhibition curve with a large enough effect; inconclusive = small, poorly fitted or top-dose-only effect, or another doubt; inactive = no such curve, though single readings can be large or run the other way;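 also: the enzyme is Sfp with the accession as filed and its product quenches rhodamine fluorescence; potency is read from the fitted curve at half-maximal effect; 0% = enzyme reaction without inhibitor and -100% = no enzyme wells; top concentration of the series not given in the record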
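Step 1, compound plus 15 nM Sfp-PPTase, 15 min, room temperature. Step 2, add rhodamine-CoA (5 uM) and BHQ-2-YbbR (12.5 uM). Step 3, read 525/598 nm fluorescence at 0 and 30 min.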
Menin-MLL FL inh: qHTS Assay for Inhibitors Targeting the Menin-MLL Interaction in MLL Related Leukemias: Competition With Fluorescein Labeled MLL-derived Peptide | Fluorescence polarization, fluorescein-MLL peptide displacement from menin | FP activity change, % at 61.4 µM | 290,000 tested, under 10 active | AID 1766, 2009; inconclusive = falling polarisation curve, or a change in total fluorescence; inactive = total fluorescence flat and polarisation flat or rising; no compound was filed as active; the % refers to the polarisation; negative = inhibition;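 also: % of control where 0% means no effect; inhibitors lower the polarisation; unlabelled MLL peptide was the positive control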
gsp antagonist: qHTS for Antagonists of gsp, the Etiologic Mutation Responsible for Fibrous Dysplasia/McCune-Albright Syndrome: qHTS | gsp-mutant cells, cAMP HTRF, 30 min; control for the full effect not named in the record | Potency, µM (titrated, usually from 76.9 µM), for the others: at the highest dose activity change, negative = inhibition, most hits filed as inhibitors | 340,000 compounds, 0.4% hits | AID 624288, 2012; active = falling curve of any shape with a large fitted effect; inconclusive = falling curve, mostly with a smaller effect; inactive = flat or rising curve; cell line not stated here;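 also: intracellular cAMP measured with PDE inhibitor Ro 20-1724 present during compound exposure; potency is read from the fitted curve at half-maximal effect; % is scaled to controls: 0 for no effect and ±100 for the full control effect; nearly all actives have a fitted effect of over 65% in size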
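HTRF cAMP read-out (cAMP-d2 plus anti-cAMP antibody-K in lysis buffer, 30 min RT). Before lysis, cells are exposed to compounds with […] for 30 min at 37C in DPBS containing Ca/Mg, BSA and Tween 20.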
CtBP-E1A inh: qHTS Assay for Inhibitors of the CtBP/E1A Interaction; CtBP / adenovirus E1A interaction (AlphaScreen); AlphaScreen GST-E1A/His-CtBP binding, 1536-well; stronger effect = lower value; control for the full effect not named in the record; activity change, % (no concentration beside the values); 340,000 compounds, 0.49% hits; in the data active means activity change below about -65%; inconclusive means about -30% to -65%; inactive means above about -30%; also: % is scaled to controls: 0 for no effect and ±100 for the full control effect
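In 5 uL wells, 23 nL compound meets equimolar GST-E1A and His-CtBP (5X stock 125 nM each) for 2 h, 37 °C. Beads (5X, 50 ug/mL) then 1 h, 37 °C, dark.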
gsp ag: qHTS for Agonist of gsp, the Etiologic Mutation Responsible for Fibrous Dysplasia/McCune-Albright Syndrome: qHTS | gsp mutant cells, cAMP HTRF, 30 min; control for the full effect not named in the record | Potency, µM (series often up to 76.9 µM), for inactives: at the highest dose activation (cAMP increase), actives largely listed as activators | 340,000 compounds, 0.13% hits | AID 624287, 2012; active = well fitted activation curve with a large enough effect; inconclusive = small, poorly fitted or top-dose-only effect, or another doubt; inactive = no such curve, though single readings can be large or run the other way; cell line not stated here;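 also: phosphodiesterase inhibitor Ro 20-1724 added with compounds to block cAMP breakdown; potency is read from the fitted curve at half-maximal effect; nearly all actives have a fitted effect of over 60% in size; about a fifth of the inactives were tested at one dose only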
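Cells stably selected in G418 were plated at 2000/well, grown 16-24 hr, then given compounds in DMSO with the PDE inhibitor […] (300 uM solution added) for 30 min at 37C; cAMP was read by HTRF.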
TRPV1 potentiator: HTS Assay for Compounds that Act as Potentiators of the Vanilloid Receptor 1; Transient receptor potential cation channel subfamily V member 1 (Homo sapiens), Q8NER1; potentiation, % at 8.33 µM; TRPV1-expressing cells, Fluo-8 calcium influx, capsaicin EC20 potentiation; host cell line not named in the record; control for the full effect not named in the record; 320,000 compounds, 0.02% hits; active means potentiation above 80%; inconclusive means 30% to 80%; inactive means below 30%; also: 0% is about no effect
Target sequence (Q8NER1 whole entry, looked up): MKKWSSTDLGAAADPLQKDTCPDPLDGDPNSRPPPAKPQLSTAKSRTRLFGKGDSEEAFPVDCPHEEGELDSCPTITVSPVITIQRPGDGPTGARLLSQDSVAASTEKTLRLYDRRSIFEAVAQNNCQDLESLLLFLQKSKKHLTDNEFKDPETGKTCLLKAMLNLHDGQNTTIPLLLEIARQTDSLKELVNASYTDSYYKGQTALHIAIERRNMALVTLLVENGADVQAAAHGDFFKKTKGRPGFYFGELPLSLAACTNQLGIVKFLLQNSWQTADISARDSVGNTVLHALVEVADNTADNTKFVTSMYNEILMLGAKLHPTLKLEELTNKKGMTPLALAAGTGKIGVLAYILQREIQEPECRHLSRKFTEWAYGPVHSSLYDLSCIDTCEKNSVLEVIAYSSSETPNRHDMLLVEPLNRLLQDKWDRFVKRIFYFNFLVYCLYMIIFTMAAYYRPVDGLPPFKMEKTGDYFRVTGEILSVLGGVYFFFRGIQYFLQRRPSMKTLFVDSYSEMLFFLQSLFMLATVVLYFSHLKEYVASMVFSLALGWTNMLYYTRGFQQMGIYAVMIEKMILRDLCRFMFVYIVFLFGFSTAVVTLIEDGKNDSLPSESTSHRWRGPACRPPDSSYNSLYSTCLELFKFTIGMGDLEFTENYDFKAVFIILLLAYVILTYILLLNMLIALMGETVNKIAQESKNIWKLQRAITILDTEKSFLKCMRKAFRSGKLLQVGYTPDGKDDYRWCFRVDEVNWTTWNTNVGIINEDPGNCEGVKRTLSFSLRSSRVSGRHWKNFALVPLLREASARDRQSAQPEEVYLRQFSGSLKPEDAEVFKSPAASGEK
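Cells expressing TRPV1 were dye-loaded with Fluo-8 and read kinetically: 10 s baseline, 3 min after compound (agonist portion), then 2 min after EC20 capsaicin (allosteric enhancer portion). Calcium-bound dye fluorescence at 480/520 nm.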
An asterisk follows results filed as active; ? = inconclusive; . = not tested or not shown; [ ] = dose if it differs, or a comment. No enrichment for hits; about 5.3% have a hit in one of these screens.

SMILES	ClpP mod	Sfp inh	Menin-MLL FL inh	gsp antagonist	CtBP-E1A inh	gsp ag	TRPV1 potentiator
Cc1cc(C)c(C(=O)Nc2ccc(Br)c(C(F)(F)F)c2)c(C)c1	-2.5%	10.4%	4.8	?	0.9	24.4%	-1.8
COc1nc(-c2ccccc2)c2cc(C)ccc2n1	-0.5%	8.2%	-1.8	-1.6%	-4.0	-1.0%[15.4 µM]	-3.2
COc1ccccc1C(=O)OC1CCCN(C)C1 (stereo not given)	-13.9%	11.6%	7.4	14.5%	-6.1	?	3.5
N#CC(C(=O)OC1CCCCC1)c1nc2ccccc2nc1N1CCOCC1 (stereo not given)	4.2%	1.0%	?	10.0%	7.8	2.3%	?
O=C(c1ccco1)N1CCN(C(=O)C2CC(c3ccc(Cl)cc3)=NO2)CC1 (stereo not given)	-0.8%	17.9%	-1.4	6.2%	3.2	-27.1%	-7.8
COc1ccc2c(c1)[C@H]1[C@H](CO2)[C@H](c2ccccc2)[C@]2(C)C(=O)Nc3ccc(C)cc3C(=O)N12	-29.2%	.	.	?	-16.1	?	.
c1ccc(Cn2c(Nn3cnnc3)nc3ccccc32)cc1	-1.6%	14.6%	2.6	0.8%	7.1	3.1%	2.0
Cc1cc(OCC(=O)NNC(=S)NCC2CCCO2)cc(C)c1Cl (stereo not given)	-2.5%	8.0%	.	-2.1%	-8.5	-26.7%	11.8
Cc1ccccc1NC(=O)c1cccc(C(=O)Nc2ccccc2C)n1	.	4.9%	-11.4	-13.1%	0.1	-11.1%	2.5
CCOC(=O)c1c(C)c2c(n1C)CCC/C2=N\O	-3.1%	15.8%	-0.2	-5.3%	-7.7	-5.1%	6.3
Cn1c(=O)n(C)c2cc(S(=O)(=O)N3CCOCC3)ccc21	-0.4%	20.9%	1.7	-3.3%	0.5	12.5%	3.4
Cc1cccnc1NC1CCCCC1	4.2%	6.0%	-4.9	2.8%	.	-6.1%	-1.5
Cc1ccc(C)c(/C=C2\CCn3c2nc2cc(C(=O)O)ccc2c3=O)c1	?	3.4%	1.3	-10.6%	.	2.2%	3.6
CCN1CCCC1CN(Cc1cc2cc(C)ccc2[nH]c1=O)C(=O)Nc1ccccc1OC (stereo not given)	-8.5%	8.0%	?	-9.7%	-0.3	-14.7%	12.8
NC(=O)c1ccccc1NS(=O)(=O)c1ccc(F)cc1	.	10.1%	2.0	15.4%	0.8	-7.2%[15.4 µM]	-1.0
CC1CC(C)CN(c2nc3c(c(=O)[nH]c(=O)n3C)n2CCCSc2nc3ccccc3s2)C1 (stereo not given)	-3.9%	.	.	3.1%	-15.8	18.9%	.
CCOc1ccc(CN2CCN(Cc3cccn3-c3ncccn3)CC2CCO)cc1 (stereo not given)	.	8.8%	2.8	7.3%	-4.7	11.5%[15.4 µM]	4.7
N#Cc1nc(-c2ccc(F)cc2)oc1NCc1cccc2c1OCO2	4.4%	1.6%	-0.2	4.8%	20.6	6.3%	-11.9
O=C(C1CCC(C(=O)N2CCCCC2)CC1)N1CCCCC1 (stereo not given)	-4.8%	20.9%	0.7	4.3%	-0.5	6.2%	2.0
O=C(Nc1ccccc1)c1cccc(N2CCCC2=O)c1	-2.2%	-7.3%	3.0	-8.5%	-3.8	0.0%	0.4
CCCCc1ccc(-c2ccc(Br)cc2O)nc1	1.1%	14.1%	-0.4	9.6%	8.5	33.8%	-25.7
COCCNC(=O)CSC1=N/C(=C/c2ccc(Cl)c(Cl)c2)C(=O)N1c1ccccc1F	?	-22.4%	2.5	-9.6%	-2.1	13.9%	0.4
Cc1ccc(S(=O)(=O)CCC(=O)NCc2ccc(Cl)cc2)cc1	1.1%	19.9%	1.9	5.9%	-1.6	7.0%	-0.2
CCCC(=O)n1nc(-c2cccnc2)nc1NCc1cccs1	.	-11.2%	-0.3	-6.3%	5.1	0.4%[15.4 µM]	-8.6
Cc1c(NS(=O)(=O)c2ccc(N)cc2)c(=O)n(-c2ccccc2)n1C	6.3%	19.2%	-1.4	8.4%	2.7	4.4%[15.4 µM]	-15.7
O=C(O)c1cn(-c2ccc(F)cc2)c2cc(Cl)c(F)cc2c1=O	.	12.8%	-0.6	-17.6%	6.8	0.8%	-5.4
COc1ccc(CCCC(=O)Nc2ccccc2F)cc1	-7.9%	0.2%	5.2	-7.1%	-17.4	?	-15.8
O=C(Cn1nnc2ccccc21)c1cccc([N+](=O)[O-])c1	0.2%	0.1%	0.6	6.2%	-0.8	22.7%	-8.2
COc1ccc(CNCc2cccn2C)cc1	0.0%	2.9%	0.3	-5.7%	-9.9	0.4%	15.6
Cc1cc(C)cc(NC(=O)CCN2CCOCC2)c1	-3.6%	30.0%	3.7	9.0%	.	9.7%	3.6
COc1ccc(CCNC(=O)CCCC(=O)n2nc(C)c3ccccc32)cc1OC	-0.1%	-13.0%	-2.7	2.6%	-1.8	-31.0%[inhibitor]	-12.3
Cc1ccc(/C=C2\C(=O)Nc3ccccc32)o1	-1.9%	15.8µM*	?	-1.5%	-13.7	-9.3%	1.8
COc1cccc(CN2CCNC(=O)C2CC(=O)N(C)Cc2nc(C)cs2)c1OC (stereo not given)	-0.6%	8.1%	.	14.8%	-1.1	-0.8%	-8.8
O=C(NC(Cc1ccccc1)C(=O)N1CCN(S(=O)(=O)c2ccccc2)CC1)c1ccccc1 (stereo not given)	-2.2%	.	.	-4.9%	-11.1	20.3%	.
O=C(Nc1ccc(Br)cc1)c1cccc(S(=O)(=O)Nc2cnc3ccccc3c2)c1	-1.3%	11.0%	5.8	?	0.0	-10.9%[15.4 µM]	18.4
CC(C)c1cc(C(=O)N2CCN(C(c3ccccc3)c3ccccc3)CC2)no1	-0.7%	1.6%	4.0	-5.5%	17.0	2.5%	2.1
CC(Sc1ccc2nnc(-c3ccc(F)cc3)n2n1)C(=O)O (stereo not given)	3.9%	-2.3%	-0.4	-0.6%	-13.9	?	-6.0
O=c1c2ccccc2nc2n1C(CSCc1ccc(Cl)cc1Cl)CS2 (stereo not given)	-1.2%	0.6%	2.5	-26.2%	14.0	-4.6%	-11.9
Cc1ccc(S(=O)(=O)N(C)Cc2ccc(C(=O)N/N=C/c3ccc(OC(F)F)cc3OC(F)F)cc2)cc1	?	14.9%	-4.1	0.0%	0.5	?	10.3
Cc1csc(SCC(=O)NCc2ccccc2)n1	.	25.0%	0.3	4.7%	5.7	-0.2%	10.7
CCn1nc(NS(=O)(=O)c2ccc([N+](=O)[O-])cc2)c2cc3ccc(C)cc3nc21	-2.5%	8.0%	-0.4	-10.7%	.	-7.9%	0.7
CCn1cc(CN2CCc3c([nH]c4ccccc34)C2c2cccc(OC)c2OC)c(C)n1 (stereo not given)	.	?	-11.5	17.7%	-0.3	-2.3%[15.4 µM]	-7.1
Cc1ccc(NC(=O)Cn2ncc3c([nH]c4ccccc43)c2=O)cc1Cl	-1.0%	6.6%	4.5	0.5%	8.7	?	4.1
Nc1nnc(SCc2nc3scc(-c4ccccc4)c3c(=O)[nH]2)s1	0.9%	3.2%	18.6	-16.5%	0.0	2.0%	6.6
COc1ccc(-c2nn(-c3ccccc3C)cc2CNCCc2cnc[nH]2)cc1F	.	?	0.7	-0.2%	-20.1	5.1%	4.2
CCOC(=O)c1ccc(N2CC(O)=C(c3nc4ccccc4c(=O)[nH]3)C2=N)cc1	?	14.9%	?	-1.8%	-7.2	33.4%	8.5
COc1ccc(N2CC(C(=O)OCC(=O)c3cccc(OC)c3)CC2=O)cc1 (stereo not given)	2.4%	5.4%	-0.1	-6.3%	5.8	-20.6%	-11.4
CCOc1cc2c3c(c1)C1(OCCO1)C(=O)N3C(C)(C)CC2C (stereo not given)	?	-9.5%	-1.1	-3.2%	-4.2	-98.3%[inhibitor]	0.1
Cc1ccnc(NC(=O)CSc2cc(=O)n(C)c3ccccc23)c1	-27.3%	12.9%	-3.1	-0.1%	-5.0	2.8%	2.5
CC(C)c1ccc(-c2nn(-c3ccccc3)cc2C2C(C#N)=C(N)OC3=C2C(=O)CC(C)(C)C3)cc1 (stereo not given)	-1.9%	14.1%	3.4	?	-4.5	10.3%	18.9
CCC(C)(C)NC(=O)C(c1ccccn1)N(C(=O)c1csnn1)C1CCCCC1 (stereo not given)	.	-4.4%	-2.8	3.5%	-8.6	12.2%[15.4 µM]	-17.4
CCCC(=O)NC(C)c1nc2ccccc2n1CC (stereo not given)	0.9%	7.8%	0.0	7.1%	0.0	?	-1.4
Cc1ccc([C@@H]2C[C@H]3[C@@H](CN2S(=O)(=O)c2ccc(Cl)cc2)C(=O)C[C@@H](c2ccc(C)cc2)N3S(=O)(=O)c2ccc(Cl)cc2)cc1	0.0%	.	.	.	-6.4	1.6%	.
NC(=O)CC(NC(=O)Cc1cccc2ccccc12)c1ccc(NCCc2ccccc2F)c([N+](=O)[O-])c1 (stereo not given)	-0.4%	?	1.7	-5.3%	-0.1	.	-5.8
COc1ccc(C(c2nnnn2Cc2ccc(F)cc2)N2CCN(c3ccccc3)CC2)cc1 (stereo not given)	1.7%	7.4%	1.4	-4.8%	-11.4	-10.4%	2.0
CCOc1ccccc1NC(=O)Nc1c(C)n(-c2ccccc2)c(=O)n1C	0.5%	-2.6%	2.4	-9.2%	1.0	?	6.8
Cc1ccc(C(=O)N=c2sccn2C)o1	-1.3%	3.0%	.	10.3%	6.6	?	-6.2
COc1ccc(OC)c2sc(NC(=O)C3COc4ccccc4O3)nc12 (stereo not given)	-24.1%	.	.	-9.8%	-13.7	-15.6%	.
